Screening data from PubChem BioAssay.
MT1-MMP act inh: MT1-MMP (human) activation inhibition; P50281; HT1080 RFP-PRO-GFP cells, GFP/RFP ratio fluorescence, overnight; percent of plate control window, DMSO zero; GFP/RFP ratio change, % at 20 µM; 360,000 tested, 0.061% active;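 active means GFP/RFP ratio change of at least 30% with cell ATP level not reduced by more than half and red fluorescence within 50% of control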; further: strong numbers were not always called active
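Assay system: HT1080 cells carrying an RFP-PRO-GFP reporter | Dosing: Single dose of 20 µM compound, 1% DMSO final | Incubation: Cells overnight before dosing, compound overnight, 37 °C, 5% CO2 | Evaluation: GFP/RFP fluorescence ratio | Control set: DMSO and RFP-L50D-GFP cell wells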
Rce1 inh: inhibitors of yeast Ras-converting enzyme; Q03530; yeast membranes, quenched prenylated peptide cleavage fluorescence; calls only; 290,000 tested, 0.27% active; AID 2563;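 active means fall in fluorescence gain of 50% or more versus controls, with final raw signal at or below 3038400; inconclusive means same 50% fall but final raw signal above 3038400; inactive means fall in fluorescence gain under 50%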;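 further: plate controls were neutral control wells for no effect and wells lacking membranes for full effect; tested at 10 µM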
eIF4H FP inh: inhibitors of RNA binding by human eIF4H. 290,000 tested, 0.94% active. AID 2012. Q15056. eIF4H fluorescence polarization binding assay. inhibition, % at 35 µM;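 active means 50% or more with normal probe brightness, or confirmed in later tests; inconclusive means above 50% with abnormal brightness, or retests that disagree; inactive means below 50% or failed in later tests; about a fifth of its hits are not listed in these tables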;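 further: calls also rest on retests at 20 µM and on dose response follow-up; 0% = protein and probe with vehicle and 100% = probe without protein; strong numbers were not always called active; many hits fall short of the cut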
UUG fidelity: alters start codon recognition fidelity in yeast; S. cerevisiae UUG-firefly luciferase reporter, luminescence/redox ratio; activity score, % at 18.7 µM; 350,000 tested, 0.13% active;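 active means replicate mean at a twofold rise or more, about +100% in these data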;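 further: firefly luciferase made from a UUG start codon reports start codon fidelity; reporter light over untreated wells divided by growth signal over untreated wells; some hits fall short of that in this replicate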
HIV Env fusion: inhibitors of HIV Env-mediated cell fusion; HeLa-JRFL Env/CEM21 cell fusion, luciferase; inhibition, % at 12.3 µM; 360,000 tested, 1.1% active;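 active means mean replicate inhibition score of at least 50 and every replicate individually at or above 50; inconclusive means only one of the two criteria met; inactive means mean below 50 and not all replicates reaching 50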;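 further: 0% = plate neutral controls and 100% = maraviroc near 300 nM; one replicate is shown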
CSC inhib: blocks cancer stem cells; 300,000 tested, 1.1% active; AID 2717; inhibition, % at 7.5 µM; cancer stem cell-like cells viability, luminescence;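 active means mean at 75% or more and at least half the replicates too; inconclusive means mean and replicates disagree; tested in HMLE shEcad cells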;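 further: 0% = median of negative and 100% = median of positive control wells; the first replicate is given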
PABP FP inh: blocks human PABP binding to poly(A) RNA; AID 2014; P11940; inhibition, % at 35 µM; fluorescence polarization; 290,000 tested, 1% active;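 active means 50% or more with normal probe brightness, or confirmed in later tests; inconclusive means above 50% with abnormal brightness, or retests that disagree; inactive means below 50% or failed in later tests; about a fifth of its hits are not listed in these tables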;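 further: calls also rest on retests at 20 µM and on dose response follow-up; controls were probe without protein and protein plus probe with vehicle; some compounds called inactive have numbers as strong as hits; many hits fall short of the cut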
Target sequence (P11940 whole entry, looked up): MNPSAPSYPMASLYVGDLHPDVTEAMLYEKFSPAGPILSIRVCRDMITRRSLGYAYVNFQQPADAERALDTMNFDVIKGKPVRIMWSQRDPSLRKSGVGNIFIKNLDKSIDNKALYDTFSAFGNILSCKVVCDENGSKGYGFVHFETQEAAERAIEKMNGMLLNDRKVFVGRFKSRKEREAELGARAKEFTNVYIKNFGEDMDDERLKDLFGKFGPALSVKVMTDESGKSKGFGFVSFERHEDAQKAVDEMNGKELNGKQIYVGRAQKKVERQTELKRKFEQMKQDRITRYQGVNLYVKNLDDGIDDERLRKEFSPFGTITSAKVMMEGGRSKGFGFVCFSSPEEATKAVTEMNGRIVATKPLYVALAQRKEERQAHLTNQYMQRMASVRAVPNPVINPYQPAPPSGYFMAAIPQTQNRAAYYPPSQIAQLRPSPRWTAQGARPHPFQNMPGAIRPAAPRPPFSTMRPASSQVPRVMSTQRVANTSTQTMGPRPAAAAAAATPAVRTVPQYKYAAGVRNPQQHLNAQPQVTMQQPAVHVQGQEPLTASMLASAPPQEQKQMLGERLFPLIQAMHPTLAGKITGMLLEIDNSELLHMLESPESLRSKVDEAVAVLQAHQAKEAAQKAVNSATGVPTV
eIF4H FP inh retest: second read-out of eIF4H FP inh, no call of its own (marks repeat the call); inhibition, %; compound at 20 µM; confirmation average;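 mean of two retest wells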
PABP FP inh retest: also measured in PABP FP inh; calls as there; inhibition, %; compound at 20 µM; confirmation repeats;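 mean of two retest wells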
MT1-MMP act inh RFP: recorded beside MT1-MMP act inh, whose call it bears; RFP signal change, %; measured here: RFP expression control read;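 0 = vehicle wells; hits needed this value within 50% of zero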
* = called active by the depositor; i = inactive; ? = inconclusive; . = not tested or not shown. An excerpt; the hit share may differ from the screen's.

SMILES | MT1-MMP act inh | MT1-MMP act inh RFP | Rce1 inh | eIF4H FP inh | UUG fidelity | HIV Env fusion | CSC inhib | PABP FP inh | others
Clc1cccc(C2CCN(Cc3nc(CC4CC4)no3)C2)c1 (stereo not given) | 4.9 | 1.1 | i | -2.2 | -0.6 | -4.8 | 1.4 | -5.3
Cc1ccc(S(=O)(=O)/N=c2\sccn2C)cc1 | 3.1 | 3.6 | i | -17.7 | -17.6 | -41.8 | -5.0 | 4.3
COc1ccc(-c2[nH]nc3nc(N4CCN(C(=O)c5ccoc5)CC4)cc(C(F)(F)F)c23)cc1 | -3.8 | -22.7 | . | . | -8.6 | 3.7 | . | .
COc1ccc(Cc2nnc(N=Nc3c(O)[nH]c4ccc(Br)cc34)[nH]c2=O)cc1 | -0.7 | -9.3 | i | 25.5 | . | 4.7 | 9.4 | -5.6
Cc1nn(Cc2noc(C(=O)NCc3ccc(F)cc3)n2)c(C)c1Br | 2.7 | 0.4 | i | 10.6 | 1.8 | 7.1 | -14.2 | -7.3
CC(NC(=O)C(=O)N/N=C\c1ccc([N+](=O)[O-])cc1)c1ccccc1 (stereo not given) | 1.1 | 0.4 | i | -1.4 | . | 8.5 | -6.3 | 1.9
COC(=O)C1CCN(C(=O)COC(=O)C2CCN(S(=O)(=O)c3ccc4c(c3)OCCO4)CC2)CC1 | 0.0 | 4.1 | i | 1.8 | -7.4 | . | -23.6 | 3.3
Nc1nnc(CCS(=O)(=O)c2ccc(Cl)cc2)s1 | 1.7 | 1.0 | i | -1.2 | 0.1 | . | -18.8 | -3.2
COc1cc(CN2CCCC(CO)(Cc3ccccc3F)C2)ccc1O (stereo not given) | -0.8 | 1.4 | i | 2.1 | -8.2 | 1.5 | -15.5 | 1.1
CCc1ccc(C(O)c2ncc(-c3ccccc3C(F)(F)F)[nH]2)cc1 (stereo not given) | 1.2 | 1.7 | . | . | -11.9 | -6.7 | . | .
Cc1ccc(-n2cccc2/C=N/n2cnnc2)cc1Cl | -1.2 | -6.1 | i | -8.1 | -9.6 | . | -0.8 | -4.8
O=C(CNC(=O)c1ccccc1F)NCCOc1cccc(Cl)c1Cl | 0.2 | 5.5 | i | 0.3 | 517.4* | -32.8 | -13.0 | 1.3
Cc1ccc(NC(=O)CSc2nccn2Cc2ccccc2)cc1C | 0.3 | -5.0 | i | -2.6 | -18.2 | . | -2.9 | -4.3
COC(=O)c1ccc(C(=O)NC2CCCc3c2cnn3-c2ccccc2F)nc1 (stereo not given) | -8.9 | -17.3 | i | -2.0 | -27.8 | 14.3 | 62.1 | -5.1
CC(C)Oc1ccc(NC(=O)c2ccncc2)cc1 | 0.5 | -9.5 | i | -8.9 | -22.4 | -0.1 | -12.0 | -13.5

A draw from above in order of formula weight, rising.
SMILES | MT1-MMP act inh | MT1-MMP act inh RFP | Rce1 inh | eIF4H FP inh | UUG fidelity | HIV Env fusion | CSC inhib | PABP FP inh | others
Nc1nnc(CCS(=O)(=O)c2ccc(Cl)cc2)s1 | 1.7 | 1.0 | i | -1.2 | 0.1 | . | -18.8 | -3.2
COC(=O)c1ccc(C(=O)NC2CCCc3c2cnn3-c2ccccc2F)nc1 (stereo not given) | -8.9 | -17.3 | i | -2.0 | -27.8 | 14.3 | 62.1 | -5.1
COc1ccc(Cc2nnc(N=Nc3c(O)[nH]c4ccc(Br)cc34)[nH]c2=O)cc1 | -0.7 | -9.3 | i | 25.5 | . | 4.7 | 9.4 | -5.6

Compounds above with an NH in an aromatic ring (three):
SMILES | MT1-MMP act inh | MT1-MMP act inh RFP | Rce1 inh | eIF4H FP inh | UUG fidelity | HIV Env fusion | CSC inhib | PABP FP inh | others
COc1ccc(-c2[nH]nc3nc(N4CCN(C(=O)c5ccoc5)CC4)cc(C(F)(F)F)c23)cc1 | -3.8 | -22.7 | . | . | -8.6 | 3.7 | . | .
COc1ccc(Cc2nnc(N=Nc3c(O)[nH]c4ccc(Br)cc34)[nH]c2=O)cc1 | -0.7 | -9.3 | i | 25.5 | . | 4.7 | 9.4 | -5.6
CCc1ccc(C(O)c2ncc(-c3ccccc3C(F)(F)F)[nH]2)cc1 (stereo not given) | 1.2 | 1.7 | . | . | -11.9 | -6.7 | . | .

More entries follow:
SMILES | MT1-MMP act inh | MT1-MMP act inh RFP | Rce1 inh | eIF4H FP inh | UUG fidelity | HIV Env fusion | CSC inhib | PABP FP inh | others
CCc1ccc(C(=O)N/N=C(\C)c2ccncc2)s1 | 0.7 | 2.7 | i | -11.7 | 5.4 | . | . | -13.0
COc1ccccc1OCC(=O)Nc1cc(C)ccc1NC(=O)c1ccco1 | 3.1 | 5.7 | i | -2.0 | -17.0 | 4.4 | -4.7 | -14.1
CCc1cccc2c(C(=O)COC(=O)c3ccc(O)cc3)c[nH]c12 | 7.2 | -1.2 | i | -1.1 | 4.6 | -28.8 | 40.3 | 13.0
Cc1c(NC(=O)COC(=O)COc2ccc(Nc3ccccc3)cc2)c(=O)n(-c2ccccc2)n1C | 5.5 | 8.8 | i | 1.2 | . | 10.4 | 2.5 | ?
COc1ccc(N2CCN(C(=O)c3ccc(C)c(NC(=O)C4=C(C)OCCS4)c3)CC2)cc1 | 0.7 | -3.3 | i | -14.3 | -19.7 | 1.5 | -9.6 | 3.8
COc1cc2c(cc1OC)CN(C(=S)Nc1ccc(OC(F)F)cc1)CC2 | 5.5 | -1.5 | i | 8.7 | 0.9 | 17.0 | 6.5 | 4.3
Cc1nn(-c2ccccc2)c2nc(-c3ccco3)cc(C(=O)O)c12 | -0.2 | 0.7 | i | 88.2* | -1.4 | . | -13.2 | 66.2*
O=C1c2ccccc2C(=O)c2cc(N3CCCCC3)ccc21 | -27.8 | 26.8 | . | . | -55.3 | -138.7 | . | .
CCCCNC(=O)c1ccc(NS(=O)(=O)c2ccccc2)cc1 | 5.6 | 4.0 | i | 9.4 | . | . | -7.3 | -17.1
CN(C)c1ccc(-c2nc3ccccc3n2C)cc1 | 8.7 | 0.3 | ? | -7.1 | -59.5 | . | . | -5.5
Cc1ccc(NC(=S)NNC(=O)C2CC2c2ccc(C)cc2)cc1 (stereo not given) | -1.4 | 1.2 | i | 9.0 | -42.4 | -132.2 | -2.3 | 2.4
Nc1c(N(CCC2=CCCCC2)C(=O)c2ccco2)c(=O)[nH]c(=O)n1Cc1ccccc1 | -14.0 | -6.0 | i | . | . | . | 4.7 | .
O=C(/C=C/c1cccc([N+](=O)[O-])c1)N1CCN(c2ccccn2)CC1 | -3.4 | 4.3 | i | -9.6 | 2.2 | -15.0 | -15.1 | 1.0
O=C(c1ccccn1)N1CCCC(N2CCN(c3ccc(F)cc3)CC2)C1 (stereo not given) | 0.6 | 1.9 | i | -7.9 | -11.3 | -7.3 | -9.6 | -6.2
Cc1ccc2ncccc2c1NS(=O)(=O)c1ccccc1 | 2.8 | 3.1 | i | 8.4 | -2.6 | -7.3 | 2.4 | 39.0
Cc1ccccc1C(=O)Nc1ccc2c(c1)OCO2 | 4.7 | 0.6 | i | -16.4 | -44.0 | . | 7.2 | 0.6
CCc1noc(C)c1C(=O)N(CC)CC(=O)NCc1ccc(F)cc1 | 1.2 | 6.1 | . | . | -0.5 | -28.1 | . | .
COc1ccc(-c2cc(C3CCN(c4ncccc4[N+](=O)[O-])CC3)[nH]n2)cc1 | -6.1 | -12.4 | i | -1.5 | -1.7 | -76.7 | 36.8 | 1.0
CC(C)CCNC(=O)C1CCN(S(=O)(=O)c2ccc3c(c2)CC(C)N3C(=O)C2CCC2)CC1 (stereo not given) | 2.2 | -0.9 | i | -7.9 | 5.1 | 22.2 | -8.7 | -10.5
O=C(CCCN1C(=O)/C(=C/c2ccccc2Cl)SC1=S)N1CCOCC1 | -1.2 | -3.2 | i | -2.2 | -11.0 | 7.7 | 27.6 | -3.4
COc1ccc(NC(=O)CCNC(=O)Cn2ccc3ccccc3c2=O)cc1OC | 0.7 | 5.2 | i | 8.0 | -7.2 | . | -4.3 | -7.9
CN(C)S(=O)(=O)c1ccc(NC(=O)C2CCCN(C(=O)c3ccc(Cl)cc3)C2)cc1 (stereo not given) | 1.1 | -0.7 | i | 1.2 | . | 0.9 | -10.4 | -11.0
C=CCN1C=C2C(=O)C(C)(OC(=O)CCc3ccccc3)C(=O)C=C2C=C1c1ccc(C#N)cc1 (stereo not given) | -10.1 | 5.7 | i | 67.5 | 1.7 | -1.0 | -5.8 | 38.3* | eIF4H FP inh retest=36.5;PABP FP inh retest=80.1*
Cc1ccccc1/C=N/Nc1nc2ccccc2[nH]1 | 7.7 | 4.2 | i | -1.4 | . | -20.4 | -26.0 | 25.3
O=C(N/N=C\c1cccnc1)c1ccc(Br)s1 | -3.5 | -3.2 | i | 3.0 | 2.8 | -25.5 | -1.2 | 7.2
CC(O)(c1cccc(F)c1)c1nc(-c2ccc(Cl)cc2)cs1 (stereo not given) | -3.3 | -7.1 | . | . | -14.1 | 13.8 | . | .
COc1cc(S(=O)(=O)NCc2cccnc2)c(OC)cc1Br | 4.3 | 2.2 | i | 4.1 | -16.8 | -73.7 | 10.4 | 12.8
CCOC(=O)C(CSCC(=O)c1ccc(Cl)cc1Cl)NC(=O)OC(C)(C)C (stereo not given) | 4.1 | 5.1 | i | -7.2 | 12.5 | . | -5.5 | 3.1
CCCSc1nnc(CSc2nc(C)cc(C)n2)n1C | -0.2 | 0.8 | i | 5.6 | . | 10.8 | -23.4 | -5.9
CC(C)[C@H](NC(=O)NCc1ccc(F)cc1)C(=O)O | 1.0 | 1.0 | i | -7.1 | 0.2 | -6.9 | -4.9 | 3.4
CC(=O)Nc1cccc(C(=O)NC(C)c2ccc(-n3ccnc3)cc2)c1 (stereo not given) | -0.6 | 0.3 | . | 3.7 | -17.5 | 13.2 | 1.6 | 22.9
CCc1ccc(NC(=S)N2CCC(NC(=O)c3ccccc3OC)CC2)cc1 | 1.8 | -3.3 | i | 2.5 | -22.2 | 19.8 | -0.7 | 8.8
CCOC(=O)C1(C)CCN1C(=O)c1cccc(OC)c1 (stereo not given) | -2.4 | 1.0 | . | . | -21.0 | 4.3 | . | .
NC(c1csc(Nc2cc(NCc3ccco3)ncn2)n1)c1ccccc1Cl (stereo not given) | -3.1 | -6.0 | . | . | -19.5 | -108.3 | . | .
CCc1nc(SCC(=O)O)c(C#N)cc1C | 4.8 | 5.0 | i | 3.8 | -20.2 | . | . | 14.7
Cc1cccc(NC(=O)CSc2nc(=O)n3ccccc3n2)c1C | 0.7 | 0.7 | i | . | . | -1.7 | -14.2 | .
CC(OC(=O)/C=C/c1ccccc1Cl)C(=O)NC1CCCCC1C (stereo not given) | -4.3 | -0.6 | i | . | 16.4 | 5.5 | -1.3 | .
COc1ccc(CCNC(=O)COC(=O)/C=C/c2ccc(OC)cc2OC)cc1 | -1.8 | -2.4 | . | . | 5.3 | -8.2 | . | .
O=C(C#Cc1ccccc1)c1ccccc1 | 6.3 | -2.6 | . | . | -3.9 | -41.3 | . | .
Cc1ccc(-c2nnc(-c3cccc(NC(=O)c4cccs4)c3)o2)cc1 | -6.9 | -13.2 | i | -10.5 | -8.6 | . | 27.5 | 7.1
CC(C)(C)c1cc(C(=O)O)nn1-c1ccccc1 | 0.2 | 0.3 | i | -0.8 | -1.3 | . | . | 16.7
